Screening data from PubChem.
GALR2 ag = GALR2 (human) receptor agonism; 140,000 compounds, 0.48% hits; activation, %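 (tested at 5 µM)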; GALR2-expressing cells, agonist activation read-out; O43603;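 active = above mean plus 3 SD of all compounds, about 5% in these data, not always enough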;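 also: 0% = vehicle buffer wells and 100% = reference agonist at full effect; tested in CHO reporter cells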
Target sequence (O43603 whole entry, looked up): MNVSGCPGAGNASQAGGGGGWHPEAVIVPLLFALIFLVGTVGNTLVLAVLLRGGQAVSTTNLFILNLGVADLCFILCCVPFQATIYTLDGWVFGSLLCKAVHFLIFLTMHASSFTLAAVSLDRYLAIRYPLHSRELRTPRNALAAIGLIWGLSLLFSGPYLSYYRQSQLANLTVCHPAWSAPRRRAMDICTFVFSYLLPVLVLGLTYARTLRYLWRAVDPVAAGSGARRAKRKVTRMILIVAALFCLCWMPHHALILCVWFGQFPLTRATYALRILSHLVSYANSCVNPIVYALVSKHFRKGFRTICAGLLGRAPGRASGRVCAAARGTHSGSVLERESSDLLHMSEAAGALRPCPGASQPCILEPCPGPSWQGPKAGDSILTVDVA
Insulin prom inh = TRM-6 insulin promoter activity inhibition; TRM-6 cells (human fetal islet line), insulin promoter-eGFP reporter, imaging; reporter expression induced with tamoxifen; inhibition, % at 2 µM; 130,000 compounds, 0.9% hits; AID 1273;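 active = inhibition above the mean plus 3 SD, with well images judged a real hit on visual review, cut at about 60% in these data, passing the limit was not always enough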
PKD1 inh = PKD1 (human) kinase inhibition. inhibition, %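 (about 10 µM by stock and volumes)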. PKD1 kinase fluorescence polarization assay. AID 797. Q15139. 200,000 compounds, 0.056% hits;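 active = inhibition of 50% or more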;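 also: controls were vehicle for no effect and a reference inhibitor for full effect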
RGS16-Gao = RGS16-Galphao interaction regulator (human) | 220,000 compounds, 0.38% hits | bead-based flow cytometry RGS16-Galphao binding, fluorescence; actives lie on both sides | O15492+P09471 | binding response (% of control), % at 10 µM | AID 1441;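 active = below 25% or above 175%, edge rows of some plates excepted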;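 also: Galphao activated by GDP with aluminum fluoride before binding; 100% = wells without compound and 0% = beads without RGS; some results beyond the cut were filed as inactive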
Target sequence (O15492 whole entry, looked up): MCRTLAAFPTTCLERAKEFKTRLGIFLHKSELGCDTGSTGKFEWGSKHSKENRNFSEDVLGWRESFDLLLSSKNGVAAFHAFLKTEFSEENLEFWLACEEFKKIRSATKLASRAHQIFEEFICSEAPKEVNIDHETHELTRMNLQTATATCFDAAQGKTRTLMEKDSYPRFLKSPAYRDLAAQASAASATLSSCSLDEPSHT
Target sequence (P09471 whole entry, looked up): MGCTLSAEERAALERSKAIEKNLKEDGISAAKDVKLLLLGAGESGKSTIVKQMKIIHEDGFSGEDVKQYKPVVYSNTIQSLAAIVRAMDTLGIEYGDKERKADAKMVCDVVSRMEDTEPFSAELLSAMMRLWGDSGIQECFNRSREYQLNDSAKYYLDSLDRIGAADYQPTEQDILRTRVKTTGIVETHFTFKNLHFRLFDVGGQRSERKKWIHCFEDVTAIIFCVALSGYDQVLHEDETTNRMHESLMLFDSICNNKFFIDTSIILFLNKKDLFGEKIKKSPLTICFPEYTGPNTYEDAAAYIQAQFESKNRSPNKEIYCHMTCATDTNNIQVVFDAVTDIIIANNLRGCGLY
HSV augment = increases HSV replication in cells; 220,000 compounds, 0.005% hits; maximum fold increase; HSV replication augmentation in cells, fold increase;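 active = peak rise of 1.5-fold or more in the series; tested in PC3 cells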;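 also: first round at 10 µM; read as green reporter fluorescence; hits show the peak of a series up to 25 µM; 1 = signal of infected wells without compound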
Insulin prom inh cell count = also measured in Insulin prom inh; calls as there; normalized cell count, %; measured here: cell count, toxicity; reference of the scale not given here;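 cells exposed to compound for 48 h; stained nuclei by imaging scaled within each plate; lower means fewer cells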
HSV augment primary fold = further read-out of HSV augment, marked with its call; fold increase; compound at 10 µM; measured here: primary screen fold increase 10 uM; tested in PC3 cells;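 GFP signal in the first replicate; 1 = infected wells without compound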
Starred values were filed as active, the others as inactive; i = inactive; . = not tested or not shown.

SMILES	GALR2 ag	Insulin prom inh	Insulin prom inh cell count	PKD1 inh	RGS16-Gao	HSV augment	HSV augment primary fold
O=C(CC(C(=O)O)C1CCCO1)NCCc1ccc2c(c1)OCO2 (centres undefined)	0.5	-83	76	-14	92	i	0.83
Cc1nc2scc(-c3cccs3)c2c(=O)o1	-0.8	-46	99	-1	95	i	0.9
COC(=O)C1=NN(c2ccccc2OC)C2C(=O)N(c3ccccc3OC)C(=O)C12 (centres undefined)	-1.4	40	105	-3	99	i	1
Cc1c(C)[n+](=O)c2c(n1[O-])CCCCC2	-1.7	42	88	-10	105	i	1.1
COc1ccccc1-n1cnc2cc(NC(C)=O)ccc21	-4.1	30	101	2	89	i	0.95
Cc1ccc(Cl)c(OCC(=O)Nc2ccc3c(c2)OCCO3)c1	-0.6	18	84	2	99	i	1.2
CC(C)n1c(O)c(N=NC(=O)C2COc3ccccc3O2)c2ccccc21 (centres undefined)	.	.	.	-2	100	i	1
O=C(CNC(=O)/C=C/c1ccccc1)N=Nc1c(O)n(Cc2ccccc2)c2ccccc12	-1.6	.	.	-5	100	i	0.85
CCOC(=O)Cc1nnc(NC(=O)c2ncn[nH]2)s1	-0.2	i	58	7	97	i	0.82
Cc1ccc(N2NC(=O)/C(=C\c3cc4c(cc3[N+](=O)[O-])OCO4)C2=O)cc1C	-1.4	45	112	-9	99	i	0.79
CN(C(=O)CCc1nnc(CCCCc2ccccc2)o1)C1CC(C)(C)NC(C)(C)C1	.	-31	78	-1	162	i	1
O=C(Nc1ccc2c(c1)OCO2)C1CC(c2ccccc2Cl)=NO1 (centres undefined)	-1.8	-125	113	3	102	i	1
C=CCOC(=O)COc1ccc2c(C)c(C)c(=O)oc2c1	-0.9	0	123	-3	98	i	0.81
CC(Oc1ccccc1)C(=O)N1CCCc2ccccc21 (centres undefined)	-2.0	-25	144	7	78	i	2
CCOC(=O)C(C)Sc1nnc(NC(=O)c2cccc([N+](=O)[O-])c2C)s1 (centres undefined)	0.7	.	.	3	76	i	1
CCc1c(O)nc(SCC(N)=O)n(-c2ccccc2F)c1=O	-2.4	.	.	2	99	i	1.3
Cc1cc(NS(=O)(=O)c2ccc(Nc3nc(-c4sc(C)nc4C)cs3)cc2)no1	0.3	-23	110	3	86	i	0.9
NNC(=O)CC(=O)NC1(Cc2ccc(O)cc2)CCCCC1	.	.	.	-5	112	i	1.1
N=c1c(C(=O)NCc2ccccc2)cc2c(=O)n3ccccc3nc2n1Cc1ccco1	2.5	26	111	0	99	i	0.72
Cc1ccc(-n2ncc3c(=O)n(CC(=O)N4CCCCCC4)cnc32)cc1	-0.7	36	97	-9	100	i	1.1
Cn1c2ccccc2c2c(C(=O)N3CCN(c4ccc(F)cc4)CC3)cn(C3CCCC3)c(=O)c21	0.2	-30	119	-5	97	i	0.99
CN(C)CCCO/N=C(\c1ccccc1)c1ccncc1	-0.4	-88	129	5	98	i	1
O=C(COc1ccc(Cl)cc1[N+](=O)[O-])N1CCCCC1	.	.	.	-4	100	i	0.97
CC(=O)Nc1ccc(-c2cc(-c3ccccc3)nc(-c3ccccc3)n2)cc1	0.1	45	84	7	111	i	0.79
Cc1ccc(NC(=O)c2cc(=O)c3ccccc3o2)c(C)c1	0.8	.	.	-9	107	i	0.92

Later entries.
SMILES	GALR2 ag	Insulin prom inh	Insulin prom inh cell count	PKD1 inh	RGS16-Gao	HSV augment	HSV augment primary fold
CCOC(=O)CSC1=C(C#N)C(c2ccc(C)s2)CC(=O)N1 (centres undefined)	-0.7	.	.	-2	97	i	0.72
Cc1ccc(CS(=O)(=O)CCC(=O)NCCCN2CCCC2=O)cc1	-3.1	27	95	-6	97	i	0.91
Cc1cc(C(=O)CN2C(=O)NC3(CCC(C)CC3)C2=O)c(C)n1C (centres undefined)	.	.	.	-3	106	i	0.91
CCN1CCc2c(sc(N)c2C#N)C1	-0.8	-111	116	-1	100	i	1.2
Clc1ccc(OCc2nnc(-c3ccccc3Br)o2)c(Cl)c1	-1.6	-120	72	-2	103	i	0.96
CCOCC(=O)N1CCN(c2ccc(F)cc2)CC1	0.0	0	132	9	104	i	0.9
C=CCN(CC=C)C(=S)NC(=O)c1ccc([N+](=O)[O-])cc1	-1.6	.	.	0	60	i	1.1
Cc1cccc(Nc2c([N+](=O)[O-])c(=O)n(C)c3ccccc23)c1	0.2	-21	95	1	98	i	0.97
Cc1oc(-c2ccc(Cl)cc2)nc1CN1CCCC(C(=O)NCc2ccccn2)C1 (centres undefined)	-2.3	.	.	-3	87	i	0.85
COc1ccc2c(CC(=O)Nc3ccccc3OC)coc2c1	.	.	.	4	99	i	0.95
O=C(COc1ccc(Cl)cc1)NCc1nnc(SCC(=O)N2CCCCCC2)o1	.	-15	117	-4	97	i	0.98
COc1cc(C(=S)N2CCOCC2)cc(OC)c1OC(=O)c1cc([N+](=O)[O-])cc([N+](=O)[O-])c1	-1.4	33	78	-5	102	i	0.89
COc1cc(CN2CCC(C(=O)N3CCC(C)CC3)CC2)cc(Br)c1O	-2.1	.	.	-7	102	i	0.77
COc1ccc2c3c(cccc13)NN=C2C	-1.2	79*	15*	-2	.	.	.
O=C(CSc1nnc(CNc2ccc(F)cc2)n1Cc1ccccc1)NCc1ccccc1	-3.0	-77	49	-1	94	i	1.1
CC(C)(C)C(=O)Nc1ccc(-c2csnn2)cc1	.	.	.	.	109	i	0.87
O=C(Nc1ccno1)Nc1ccc(Cl)cc1Cl	.	.	.	.	101	i	1.1
O=C(Cn1c2ccccc2c(=O)c2cc([N+](=O)[O-])ccc21)Nc1ccccc1Cl	2.7	-35	88	-3	113	i	0.84
Cc1ccnc2nc(C(=O)OCCOc3cccc(Br)c3)nn12	-2.0	.	.	2	107	i	0.97
COc1ccc(/C=N/NC(=O)c2ccco2)cc1OCc1ccccc1	.	.	.	.	107	i	0.95
CC(CN1CCOCC1)OC(=O)c1ccccc1 (centres undefined)	.	.	.	.	96	i	1
COC(=O)c1sc2nc(CSc3ccc(Br)cc3)[nH]c(=O)c2c1C	.	.	.	.	95	i	1.7
CC(NS(=O)(=O)c1ccc(Br)cc1)C(=O)NCc1ccc2c(c1)OCO2 (centres undefined)	.	.	.	-6	99	i	1.1
Cc1cc(OCCn2cnc3ccccc3c2=O)cc(C(C)C)c1	-1.6	23	90	-4	47	.	.
CCCS(=O)(=O)Nc1ccc(-c2ccc3nnc(C)n3n2)cc1	.	.	.	-2	100	i	0.92

(more compounds)
SMILES	GALR2 ag	Insulin prom inh	Insulin prom inh cell count	PKD1 inh	RGS16-Gao	HSV augment	HSV augment primary fold
CC(C)[C@H](CN(N=O)[C@@H](Cc1ccccc1)CN(C)N=O)N(CCc1ccccc1)N=O	.	.	.	-3	93	i	0.88
Cc1ccc(/C=C2\OC(=O)c3ccccc32)cc1	-3.1	.	.	-9	116	i	1
CCC1=C(OC(=O)N(CC)CC)N2C(=O)OC(=NCCc3c[nH]c4ccccc34)[C@]2(C)[C@H]2C1=CC[C@H]1C(=O)N(CC(=O)OC)C(=O)[C@H]12	.	.	.	.	110	i	1.1
CC(=O)c1cccc(NC(=O)CSc2ccc(-c3ccc4c(c3)OCO4)nn2)c1	-1.1	26	144	-8	87	i	0.92
Cc1nnsc1NC(=O)OCCCl	1.1	-8	109	-7	95	i	0.95
Cc1c(OCC(=O)OC(C)(C)C)ccc2c3c(c(=O)oc12)CCC3	-1.7	-33	125	6	102	i	0.94
COc1ccccc1-c1c(NC(=O)c2ccco2)n(C)c2ccccc2c1=O	.	.	.	.	102	i	0.99
COc1cc2c(cc1OC)CN(C(=O)c1ccc(S(=O)(=O)N3CCCCCC3)cc1)CC2	0.4	-39	124	2	71	i	1.2
O=C(CCCNS(=O)(=O)c1ccccc1)NCc1ccco1	-0.7	-35	76	-8	97	i	0.97
CC(=O)NC(Cc1cccc(F)c1)C(=O)NC1CCN(c2ncccc2[N+](=O)[O-])CC1 (centres undefined)	.	.	.	-5	99	i	0.94
C/C(=N\NC(=O)c1c[nH]c2ccccc12)c1ccc(C)o1	-2.9	25	97	0	101	i	0.63
COc1ccccc1N1CCN(C(=O)C2CCCO2)CC1 (centres undefined)	3.7	30	144	3	101	i	0.94
CCCC(=O)OCCNc1cc(Sc2nccn2C)c2nonc2c1[N+](=O)[O-]	6.2*	28	48	-9	94	i	0.51
CCOC(=O)c1cnn2c1[nH]c(=O)c1ccccc12	-2.2	-182	41	-16	110	i	0.94
O=C(NCc1ccccc1F)Nc1ccc([N+](=O)[O-])cc1	.	27	129	-6	100	i	0.91
O=C(Oc1ccc2ccccc2c1)c1ccccc1	-0.2	-8	121	-1	98	.	.
Oc1ccc[n+](CCCCC[n+]2cccc(O)c2)c1	.	.	.	.	101	i	0.92
COc1ccc(N2C(=O)CC(NCc3ccc(F)cc3)C2=O)cc1 (centres undefined)	-0.7	-7	98	-5	107	i	0.97
Cc1ccc(S(=O)(=O)C(C#N)c2nc3ccccc3nc2N2CCN(C)CC2)cc1C (centres undefined)	-2.1	47	152	-1	107	i	1.1
CC(O)CCC(=O)NNC1=CC(=O)CC(C)(C)C1 (centres undefined)	.	12	160	0	101	i	0.98
c1ccc2c(c1)nc(NCCN1CCOCC1)c1nncn12	-2.4	.	.	-6	102	i	0.6
O=C(O)C1CCCCC1C(=O)Nc1ccccc1C(=O)N1CCN(c2ccc(F)cc2)CC1 (centres undefined)	-0.8	-23	79	-4	114	i	1
CC1Cc2ccccc2N1CC(=O)NCc1ccccc1Cl (centres undefined)	-0.7	-15	126	2	107	i	1
S=C(Sc1ccc(Cl)cc1)Sc1ccc(Cl)cc1	.	.	.	.	101	i	1.3
CC1CN(C(=O)Nc2cccc(Cl)c2)C2(CCCCCC2)O1 (centres undefined)	.	.	.	1	100	i	0.77

The listing continues:
SMILES	GALR2 ag	Insulin prom inh	Insulin prom inh cell count	PKD1 inh	RGS16-Gao	HSV augment	HSV augment primary fold
O=C(NC(=S)Nc1ccc(S(=O)(=O)Nc2ncccn2)cc1)c1cccc(Br)c1	.	.	.	-1	105	i	1
CC(=O)Nc1cccc(N(C)C)c1	-0.4	-44	99	-9	97	i	0.85
O=C(COC(=O)/C=C/c1ccc(OC(F)F)cc1)NCc1cccs1	-1.1	.	.	2	40	i	1.1
CC(=O)Nc1ccc(S(=O)(=O)NC2(C(F)(F)F)C(=O)Nc3c2c(=O)[nH]c(=O)n3Cc2ccco2)cc1 (centres undefined)	.	.	.	-3	94	i	0.9
O=C(NCCc1ccccn1)c1ccc(OC(F)F)cc1	.	58	129	-1	107	i	1.1
COc1ccc2c(c1OC)C(=O)OC2	.	-53	32	6	97	i	1
O=C(N/N=C/C=C/c1ccco1)/C(=C/c1ccccc1)NC(=O)c1ccccc1	0.4	4	110	-12	96	i	1.2
COC(=O)c1ccc(NC(=O)CCNS(=O)(=O)c2cccc3nonc23)cc1	-1.1	-3	92	8	104	i	0.79
COc1ccc(OCc2cccc(C(=O)Nn3cc([N+](=O)[O-])cn3)c2)cc1	-3.0	-23	92	8	75	i	1.2
CCOC(=O)C(CCCOc1ccccc1)C(=O)OCC	-1.5	3	100	-1	97	i	1
O=C(CNC(=O)c1ccccc1F)Nc1ccccc1C(F)(F)F	.	16	104	-3	99	i	1
Cc1cc(C)cc(NC(=O)COc2ccc(C(=S)N3CCOCC3)cc2)c1	.	-47	163	-2	91	i	0.94
Cc1ccc(-c2[nH]nc3c2C(c2cccnc2)C(C#N)=C(N)O3)cc1 (centres undefined)	-4.1	.	.	-18	101	i	1

Quoted at random: 4 records from the list, in no set order.
SMILES	GALR2 ag	Insulin prom inh	Insulin prom inh cell count	PKD1 inh	RGS16-Gao	HSV augment	HSV augment primary fold
Cc1ccc(N2NC(=O)/C(=C\c3cc4c(cc3[N+](=O)[O-])OCO4)C2=O)cc1C	-1.4	45	112	-9	99	i	0.79
CCCC(=O)OCCNc1cc(Sc2nccn2C)c2nonc2c1[N+](=O)[O-]	6.2*	28	48	-9	94	i	0.51
CC(=O)NC(Cc1cccc(F)c1)C(=O)NC1CCN(c2ncccc2[N+](=O)[O-])CC1 (centres undefined)	.	.	.	-5	99	i	0.94
O=C(NCc1ccccc1F)Nc1ccc([N+](=O)[O-])cc1	.	27	129	-6	100	i	0.91

For reference, part of the list above:
SMILES	GALR2 ag	Insulin prom inh	Insulin prom inh cell count	PKD1 inh	RGS16-Gao	HSV augment	HSV augment primary fold
CCOC(=O)C(CCCOc1ccccc1)C(=O)OCC	-1.5	3	100	-1	97	i	1
O=C(CNC(=O)c1ccccc1F)Nc1ccccc1C(F)(F)F	.	16	104	-3	99	i	1
Cc1cc(C)cc(NC(=O)COc2ccc(C(=S)N3CCOCC3)cc2)c1	.	-47	163	-2	91	i	0.94
Cc1ccc(-c2[nH]nc3c2C(c2cccnc2)C(C#N)=C(N)O3)cc1 (centres undefined)	-4.1	.	.	-18	101	i	1
